# 2A Renilla: FMDV 2A StopGo reporter, Renilla signal; HEK cells with a luciferase reporter of 2A StopGo recoding; Potency, µM (series often up to 57.5 µM), for the others: at the top dose signal change, negative = less light; hit rate 0.32% among 120,000; AID 1745857; active means well fitted falling curve with a large enough effect; inconclusive means small, poorly fitted or top-dose-only effect; inactive means no such curve, though single readings can be large or run the other way; further: nearly all actives have a fitted effect of over 55% in size; overnight with compound
# 2A firefly: lowers the firefly signal of an FMDV 2A StopGo reporter; HEK cells with a luciferase reporter of 2A StopGo recoding; Potency, µM (top dose mostly 57.5 µM), for inactives: top-dose signal change, negative = less light; hit rate 0.23% among 120,000; active = well fitted falling curve with a large enough effect; inconclusive = small, poorly fitted or top-dose-only effect; inactive = no such curve, though single readings can be large or run the other way; further: nearly all actives have a fitted effect of over 60% in size; overnight with compound
# * = called active by the depositor; ? = inconclusive; & = joins results of further samples; [ ] = remark or other dose. On the % scale 0 is the no-effect control and ±100 the full control effect; potency means the concentration at half of the fitted maximal effect. This is a subset (hit frequency here may not be typical).
SMILES,2A Renilla,2A firefly
CCOc1ccc(/C=C/c2nc(C#N)c(NC(C)CC)o2)cc1 (stereo not given),38%[activator],37%[activator]
CCOc1ccc(NC(=O)CCc2c(C)nn(-c3ccc(N4CCCC4)nn3)c2C)cc1,-20%,8%
O=C(Cc1cccs1)NCc1ccsc1,3%,89%[activator]
O=S(Cc1cccc(C(F)(F)F)c1)Cc1cccc(C(F)(F)F)c1,5%,10%
CCOc1ccc(CNC(=O)c2cnc3sc(N4CCOCC4)nn3c2=O)cc1OC,-19%,-10%
CNC(=O)c1ccccc1NC(=O)CC1CCCC1,3%,2%
O=C(CCC(=O)c1cccs1)Nc1ccc(N2CCCCC2)cc1,12%,79%[activator]
N#C/C(=C/c1ccc(-c2ccccc2)cc1)C(N)=O,39%[activator],92%[activator]
O=C(OCc1cccc(C(F)(F)F)c1)c1ccc(-c2nnn(Cc3ccc(F)cc3)n2)cc1,-5%,2%
CC(NC(=O)Cn1c(=O)oc2cc(S(=O)(=O)N3CCCCCC3)ccc21)c1ccccc1 (stereo not given),0%,0%
O=C(CC1NCCNC1=O)Nc1ccc(F)c(Cl)c1 (stereo not given),-3%,41%[activator]
O=C(NCc1ccc(OCC(F)(F)F)cc1)c1ccc(S(=O)(=O)N2CCCC2)cc1,41%[activator],-8%
O=C(Cn1cnc2ccccc2c1=O)OCC(=O)c1ccccc1,-18%,0%
Cc1ccc(-n2ncc3c(N4CCCCCC4)ncnc32)cc1,10%,-86%
CCOc1ccc(C2c3c(-c4cc(C)ccc4O)n[nH]c3C(=O)N2Cc2cccnc2)cc1OCC (stereo not given),-13%,-14%
COC(=O)c1sccc1S(=O)(=O)N1CCN(c2cccc(C)c2C)CC1,6%,-12%
CCCN(CCC)c1ccc(C=O)cc1,-8%,3%
O=C(CSc1nncn1-c1ccccc1F)Nc1ccccc1C(=O)NCCc1ccccc1,27%,69%[activator]
COc1ccc(C(CNC(=O)c2oc3cc(Br)ccc3c2C)N2CCCCC2)cc1 (stereo not given),-4%,-11%
Cc1c(-c2ccccc2)nc2ccccc2c1C(=O)OCc1ccc(-c2ccccc2)cc1,6%,21%

# A run of entries from the list above, as a working copy:
SMILES,2A Renilla,2A firefly
COc1ccc(C(CNC(=O)c2oc3cc(Br)ccc3c2C)N2CCCCC2)cc1 (stereo not given),-4%,-11%
Cc1c(-c2ccccc2)nc2ccccc2c1C(=O)OCc1ccc(-c2ccccc2)cc1,6%,21%

# Other entries.
SMILES,2A Renilla,2A firefly
CCn1ccc2cc(S(=O)(=O)N3CCC(C(=O)N4CCN(C)CC4)CC3)ccc21,5%,2%
CCC(C)n1nnc2cc(S(=O)(=O)N3CCC(C(=O)NCc4ccc(OC)cc4)CC3)ccc21 (stereo not given),11%,20%
C=C(Cl)CN1CCN(Cc2ccccn2)CC1,11%,17%
NC(=O)c1cnn(-c2ccccc2)c1NCc1ccncc1,-3%,3%
CN1CCN(c2nc3c(c(=O)n(C)c(=O)n3C)n2CC(=O)C23CC4CC(CC(C4)C2)C3)CC1,-5%,-9%
C#CCNC(=O)c1ccc2c(c1)NC(=O)CS2,4%,6%
O=C(c1cc2ccccc2[nH]1)N1CCc2ccccc2C1,119%[activator],196%[activator]
COc1ccccc1CNC(=O)CSc1ncc2c(n1)-c1cc(Cl)ccc1N(Cc1ccccc1)S2(=O)=O,-11%,-15%
O=C(CSc1nnc(-c2cnccn2)n1-c1ccccc1)Nc1ccc2c(c1)OCO2,-11%,-10%
COc1ccc(CCNS(=O)(=O)c2cc(-c3onc(C)c3C)ccc2OC)cc1OC,190%[activator],-8%
NC(=O)COC(=O)c1cc(-c2ccc(-c3ccccc3)cc2)nc2ccccc12,?,80%[activator]
COCC(C)NC(=O)c1ccc2c(c1)NC(=O)CCS2 (stereo not given),-3%,0%
Cc1n[nH]c(C)c1/C=C/C(=O)c1ccc(F)c(F)c1,-8%,0%
CC(C)c1ccc(CCNC(=S)Nc2ccc(Cl)cc2Cl)cc1,205%[activator],17%
Cc1ccccc1C(=O)Nc1ccc(C(=O)N2CCCC(N(C)C)c3ccccc32)cc1 (stereo not given),-11%,-22%
Cc1cc(-c2ccc(S(=O)(=O)Nc3cccc(Cl)c3C)cc2)on1,58%[activator],?
O=C1CCCC2=C1C(c1cccc(O)c1)c1c(nc(SCc3ccccc3F)[nH]c1=O)N2 (stereo not given),-5%,-11%
Cc1ccc(F)cc1Nc1ncnc(N)c1[N+](=O)[O-],-4%,-11%
CNc1c(NC(=O)c2cc(OC)c(OC)c(OC)c2)c(=O)oc2ccccc12,-7%,11%
CN(/C=C/[N+](=O)[O-])c1ccccc1,15%,14%

# Some of the entries so far, as labelled records.
molecule: Cc1c(-c2ccccc2)nc2ccccc2c1C(=O)OCc1ccc(-c2ccccc2)cc1
  2A Renilla: 6% | 2A firefly: 21%
molecule: O=C(Cc1cccs1)NCc1ccsc1
  2A Renilla: 3% | 2A firefly: 89%[activator]
molecule: N#C/C(=C/c1ccc(-c2ccccc2)cc1)C(N)=O
  2A Renilla: 39%[activator] | 2A firefly: 92%[activator]
molecule: O=C(c1cc2ccccc2[nH]1)N1CCc2ccccc2C1
  2A Renilla: 119%[activator] | 2A firefly: 196%[activator]

# Going on with the list.
SMILES,2A Renilla,2A firefly
CC(=O)c1cccc(NC(=O)CCn2nc(C)c(S(=O)(=O)N(C)C)c2C)c1,-12%,-19%
Cn1c(CC(=O)Nc2ccccc2)nnc1SCC(=O)NC12CC3CC(CC(C3)C1)C2,12%,6%
CCOc1ccccc1OCCCC(=O)Nc1ccc2c(C)cc(=O)oc2c1,-3%,30%
CCC(C)(Oc1ccc(C2(c3ccc(OC(C)(CC)C(=O)O)cc3)CCCCC2)cc1)C(=O)O (stereo not given),-16%,-23%
Cc1cc(C(=O)COC(=O)c2nccnc2N)c(C)n1C1CC1,11%,209%[activator]
CC(NC1CCCc2c1[nH]c1ccc(-c3ccccc3)cc21)c1ccccc1 (stereo not given),24%,8%
Cc1cccc(-c2nc(CS(=O)CC(=O)NCc3ccccc3)c(C)o2)c1 (stereo not given),45%[activator],17%
CCOc1ccc(CCNC(=O)c2ccc3nc(CC)c(CC)nc3c2)cc1,63%[activator],38%[activator]
Cc1cccc(OCC(=O)Nc2ccc(S(=O)(=O)Nc3onc(C)c3C)cc2)c1C,-1%,-16%
Cc1ccc(Nc2cc(C)nc3c(C)ccc([N+](=O)[O-])c23)cc1,-8%,-6%
Cc1c(C(=O)Nc2cccc(Cl)c2)sc2nc3n(c(=O)c12)N=C(c1cccc(Br)c1)CS3,-18%,-15%
CC(C)c1ccc(NC(=O)CSc2nc3c(-c4ccccc4)c[nH]c3c(=O)n2C)cc1,72%[activator],8%
COC(=O)C1(NC(=O)C2CCCO2)CCCCCC1 (stereo not given),-8%,-7%
CN(c1ccccc1)S(=O)(=O)c1nnc(NC(=O)c2ccccc2)s1,22%,11%
Cc1ccc(-c2cc(C(=O)Nc3ccc(C(N)=O)cc3)c3ccccc3n2)o1,19%,125%[activator]
Cc1cccc(C(C)C)c1NC(=O)c1cc(F)c(F)cc1Cl,17%,8%
Cn1c(SCC(=O)NC2CCCC2)nnc1-c1ccc(Cl)cc1,-7%,-2%
CSc1cccc(NS(=O)(=O)c2cc3[nH]c(=O)c(=O)[nH]c3cc2C)c1,13%,0%
Cc1ccc2c(c1)CCCN2C(=O)c1ccc(Br)o1,24%,70%[activator]
Cn1c(=O)c2c(ncn2CC(=O)OCC(=O)Nc2ccccc2C(F)(F)F)n(C)c1=O,-3%,0%
O=C(O)CC1CCN(Cc2ccccc2)CC1,-7%,5%
Cc1ccccc1NC(=O)c1n[nH]c(=O)c2ccccc12,-13%,0%
CCCOc1nc2ccccc2nc1N1CCC(C(=O)NC2CCCC2)CC1,-4%,-1%
CC(C)Sc1nc2c(c(=O)[nH]c(=O)n2C)n1CCCc1ccccc1,?,?
CCOc1ccc(-c2nc3ccc(C)cc3c(C(=O)O)c2C)cc1,-7%,4%
N#CCCN(C(=O)CSc1nc(CN2CCOCC2)nc2ccccc12)c1ccc(F)cc1,-19%,-10%
O=C(Nc1cc(Cl)cc(Cl)c1)c1ccc2c3c(cccc13)CC2,-2%,0%
CC(C)C(=O)N(C)C(c1ccccc1)c1c[nH]c2ccccc12 (stereo not given),5%,-7%
Cc1nc(N2CCCC2)ncc1-c1cc(=O)[nH]c(N2CCc3ccccc3C2)n1,0%,-5%
Cc1ccc(-c2nc(C#N)c(N3CCN(C(=O)c4cccs4)CC3)o2)cc1,-2%,-1%
O=C(Nc1nnc(-c2ccc(F)cc2)o1)C1CCN(S(=O)(=O)c2ccccc2C(F)(F)F)CC1,2%,149%[activator]
CCc1cccc2c(C(=O)C(=O)NCc3cccc(OC)c3)c[nH]c12,15%,7%
CCc1ccc2occ(CC(=O)N(Cc3ccccc3)C3CCS(=O)(=O)C3)c2c1 (stereo not given),14%,-19%
Fc1ccc(NC2c3ccccc3-c3ccccc32)cc1,17%,19%
O=C(O)/C=C/c1ccc(Cl)c(C(F)(F)F)c1,-1%,0%
CC(C)c1ccccc1NC(=O)c1nn(C)c(=O)c2ccccc12,10%,15%
Cc1cccc(NC(=O)C2CCN(c3nc4ccccc4[nH]3)CC2)c1C,-25%,-25%
O=C(Cn1c(=O)nc(-c2ccccc2F)c2cc(Cl)ccc21)Nc1ccccc1C(F)(F)F,-5%,3%
O=C(Nc1cccc2c1CCCC2)c1ccc2ccccc2c1,11%,117%[activator]
CCOc1ncccc1CNC(=O)C1CCCN1S(C)(=O)=O (stereo not given),-14%,-6%

# 2 entries drawn at random from the list so far:
SMILES,2A Renilla,2A firefly
O=C(Nc1nnc(-c2ccc(F)cc2)o1)C1CCN(S(=O)(=O)c2ccccc2C(F)(F)F)CC1,2%,149%[activator]
Fc1ccc(NC2c3ccccc3-c3ccccc32)cc1,17%,19%

# Further entries.
SMILES,2A Renilla,2A firefly
CC(=O)NC12CC3CC(CC(CO[N+](=O)[O-])(C3)C1)C2,-4%,-4%
Cc1cccc(CSc2nc(=O)c3c(n2C)NC(=O)CC3c2cccc(O)c2)c1 (stereo not given),-9%,-3%
COCCNC(=O)Cc1ccc(NC(=O)N2CCCCc3ccccc32)cc1,4%,-3%
CC(C)Oc1ccc(CNC(=O)C2CCN(C(=O)c3sccc3-n3cccc3)CC2)cc1,-15%,19%
CCC1CN(C(=O)N2CCC(C(=O)N3CCN(c4ccc(F)cc4)CC3)CC2)c2ccccc2O1 (stereo not given),?,?
CCc1nn(C(CC)C(=O)NCc2ccc(OC)c(OC)c2)c(=O)c2cc3oc(C)cc3n12 (stereo not given),?,?
CNC(=O)c1ccc(-c2nc(CN3CCc4ccccc43)c(C)o2)cc1,?,?
CCc1ccc(NC(=O)CSc2nc3ccsc3c(=O)[nH]2)cc1,-4%,29%
COc1cc(NC(=O)N2CCSc3ccccc32)cc(OC)c1OC,-6%&2%,-8%&5%
COc1cccc(Nc2nc(NCC(C)C)nc3c2cnn3-c2ccccc2)c1,1%,18%
O=Cc1cn[nH]c1-c1cccnc1,2%,1%
Cc1cccc(C(=O)Nc2ncc(Cc3ccc(C#N)cc3C(F)(F)F)s2)n1,0%,5%
O=C(COCc1cc(-c2cccs2)on1)Nc1ccc(OC(F)(F)F)cc1,12%,-7%
COc1ccccc1-c1nnc(SCC(N)=O)o1,-15%,110%[activator]
COc1ccccc1N1CCN(C(=O)c2cc3c(=O)n(Cc4cccnc4)ccc3nc2C)CC1,-6%,-11%
O=C(NCCc1csc2nc(-c3ccc(F)cc3)nn12)c1ccco1,-1%,8%
COc1ccccc1CNC(=O)c1cn(C)c2ccc(S(=O)(=O)N(C)C3CCCCC3)cc2c1=O,-5%,-9%
O=C(Nc1cccc(Cl)c1)c1ccc2c(c1)CCN2S(=O)(=O)c1ccccc1,95%[activator],4%
CN(c1ccc(F)cc1)S(=O)(=O)N1CCCC(C(=O)NCc2ccccc2Cl)C1 (stereo not given),?,?
O=C(NC1CCCCC1)N1CCC2(CC1)Nc1ccccc1-n1cccc12,-14%,-15%
COc1ccc(/C=C2/C(=O)C(C)(C)OC2(C)C)cc1OC,-10%,11%
O=c1[nH]c(-n2cccc2)c(-c2c(-c3ccc4ccccc4c3)[nH]c3[nH]c(=O)[nH]c(=O)c23)c(=O)[nH]1,-5%,4%
CCOC(=O)c1ccc2[nH]c(CSCC(=O)Nc3ccc(CC)cc3)cc(=O)c2c1,5%,3%
CC(C)c1ccc(NC(=O)CSc2nc(=O)n(Cc3ccccn3)c3c2CCC3)cc1,5%,?
Cc1ccc2c3cc(-c4ccccc4)cn3ccn12,1%,126%[activator]
CCn1cc(S(=O)(=O)c2ccccc2)c(=O)c2cc(F)c(F)cc21,2%,-15%
O=C(NCc1cccc(Cl)c1)c1ccc(NC(=O)N2CCSc3ccccc32)cc1,3%,-5%
CSc1ccccc1C(=O)Nc1ccc2c(c1)OCCCO2,10%,156%[activator]
CN(C)CCCN1C(=O)CSC1c1ccc(Br)cc1 (stereo not given),-6%,-3%
O=C(c1n[nH]c(=O)c2ccccc12)N1CCN(S(=O)(=O)c2ccc3ccccc3c2)CC1,3%,21%
Cc1c(-c2ccccc2)oc2c(C(=O)Nc3ccc(C(N)=O)cc3)cccc2c1=O,27%,12%
Cc1cccc(NC(=S)NCC2(C)CCCC3(C)c4ccc(C(C)C)cc4CCC23)c1 (stereo not given),11%,-2%
CCNC(=O)CC1C(=O)N(c2ccc(F)cc2)C(=O)N1Cc1ccc(OC)c(OC)c1 (stereo not given),-8%,0%
CCOC(=O)C1=C(CNc2ccc(C)cc2)NC(=O)NC1c1ccccc1 (stereo not given),15%,25%
CCn1cc(C#N)c(=O)n(Cc2nc(-c3ccc(F)cc3)no2)c1=O,-5%,3%
